# Vaccinia mCherry: vaccinia inhibition (mCherry reporter) | 310,000 tested, 0.63% active | Potency, µM (highest dose often 36.5 µM), without a hit: at the highest dose activity change, negative = inhibition, hits mostly inhibitors | AID 720579 | Vaccinia virus mCherry reporter infection, fluorescence; about a quarter of the inactives have no number; active = well fitted inhibition curve with a large enough effect; inconclusive = small, poorly fitted or top-dose-only effect; inactive = no such curve, though single readings can be large or run the other way; tested in A549 cells; further: nearly all actives have a fitted effect of over 35% in size; inactives centre near -10
# Vaccinia Venus: vaccinia inhibition (Venus reporter) | Vaccinia virus Venus reporter expression, fluorescence | Potency, µM (highest dose often 36.5 µM), without a hit: at the top dose activity change, negative = inhibition, most hits filed as inhibitors | 330,000 tested, 0.46% active; active means well fitted inhibition curve with a large enough effect; inconclusive means small, poorly fitted or top-dose-only effect; inactive means no such curve, though single readings can be large or run the other way; tested in A549 cells; further: nearly all actives have a fitted effect of over 30% in size; inactives centre near -10
# * hit, by the source's call; i = inactive; u = inconclusive; x = no result given; & = joins results of further samples; [ ] = another dose, or the depositor's remark. On the % scale 0 is the no-effect control and ±100 the full control effect; potency means the concentration at half of the fitted maximal effect.
nr	molecule	Vaccinia Venus	Vaccinia mCherry
1	COc1ccc(CNC(=O)CN(C(=O)c2csnn2)c2cccc3ccccc23)cc1	-7%	u
2	O=C(Nc1nc2ccccc2s1)C1CC(=O)N(c2ccc(Cl)cc2)C1 (stereo not given)	-15%	-19%
3	Cc1csc(NC(=O)c2sccc2C)n1	-9%	i
4	C[C@@H]1CN([C@@H](C)CO)C(=O)c2cc(-c3ccncc3)cnc2O[C@H]1CN(C)C(=O)c1cccc(F)c1	-10%	-15%
5	O=C1c2ccccc2C(c2nnnn2C2CCCCC2)N1CCc1ccc(O)cc1 (stereo not given)	-5%	-5%
6	CCOC(=O)N1CCN(CCC(=O)c2ccc(OC)cc2)CC1	-14%	-14%
7	O=C(Nc1c(F)cc(F)cc1F)c1cccn(Cc2ccccc2)c1=O	-7%	-14%
8	CNc1cncc(-c2c(OC)cccc2OC)n1	0%	-10%
9	CCOC(=O)CSc1nc2ccccc2n1CC(=O)NC(C)(C)C	-2%	-13%
10	COc1ccc(/C=C/C(=O)C(C(N)=O)=C2SCCS2)cc1	-14%	u
11	Cc1sc2nc(CSc3ccccc3)nc(N3CCN(C)CC3)c2c1C	-29%	1%
12	Cc1cccn2c(=O)nc(SCC(=O)Nc3ccc4c(c3)OCO4)nc12	-7%	-16%
13	CCc1ccc(S(=O)(=O)c2nnn3c2nc(N2CCC(C)CC2)c2cc(Cl)ccc23)cc1	-13%	i
14	N#Cc1ccccc1NC(=O)C(=O)NCCCN1CCCC1=O	-3%	i
15	CN(C)CCNc1oc(COc2cccc(Cl)c2)nc1C#N	17%	x

# Overlap with the part before: 7 entries, followed by the next part.
nr	molecule	Vaccinia Venus	Vaccinia mCherry
9	CCOC(=O)CSc1nc2ccccc2n1CC(=O)NC(C)(C)C	-2%	-13%
10	COc1ccc(/C=C/C(=O)C(C(N)=O)=C2SCCS2)cc1	-14%	u
11	Cc1sc2nc(CSc3ccccc3)nc(N3CCN(C)CC3)c2c1C	-29%	1%
12	Cc1cccn2c(=O)nc(SCC(=O)Nc3ccc4c(c3)OCO4)nc12	-7%	-16%
13	CCc1ccc(S(=O)(=O)c2nnn3c2nc(N2CCC(C)CC2)c2cc(Cl)ccc23)cc1	-13%	i
14	N#Cc1ccccc1NC(=O)C(=O)NCCCN1CCCC1=O	-3%	i
15	CN(C)CCNc1oc(COc2cccc(Cl)c2)nc1C#N	17%	x
16	Cc1cc2nnc(SCC(=O)Nc3ccc(Cl)cc3)n2c(N)n1	-4%	-8%
17	C#CCNC(=O)c1cc2sccc2n1C	7%	-1%
18	CCN1C(N(C)CCc2c[nH]c3ccccc23)=N[C@@H](c2cccc(C(F)(F)F)c2)C(C(=O)OC)=C1C	u	i
19	COc1ccc(NC(=O)N(C)C[C@H]2Oc3ccc(NC(=O)NC(C)C)cc3C(=O)N([C@H](C)CO)C[C@@H]2C)cc1	-9%	i
20	Cc1c(-c2ccccc2)nnn1-c1ccc(F)cc1F	-15%	-4%
21	COc1cc(C)ccc1OCCSc1nc2ccc(NC(=O)c3ccccc3F)cc2s1	-11%	i
22	O=C(Cc1ccccc1)Nc1ccccc1N1CCN(c2ccccc2)CC1	-20%	-18%
23	CC(C)(C)c1ccc(C(=O)N2CCC2(C)C(=O)Nc2ccc3[nH]ncc3c2)cc1 (stereo not given)	-10%	i
24	O=C(O)c1cc2c(s1)CCCC2	u	x
25	O=C(Nc1cc(Cl)cc(Cl)c1)c1ccc(F)c(S(=O)(=O)N2CCCCCC2)c1	-14%	-13%
26	Cc1cc(=O)n2[nH]c(SCc3ccccc3)nc2n1	5%	x
27	COc1cnc(-c2ccccn2)nc1Oc1cccc(Cl)c1	-26%	-21%
28	Cc1ccc(NC(=O)C(C)c2ccc([N+](=O)[O-])cc2)cc1Cl (stereo not given)	-18%	-18%
29	COc1cc(/C=C(\C#N)C(=O)Nc2ccc(C(=O)O)cc2)ccc1OC(=O)c1cccc(F)c1	-5%	i
30	Nc1cc(C(=O)N2CCN(c3ccccc3Cl)CC2)ccc1N1CC2CC(C1)c1cccc(=O)n1C2 (stereo not given)	-25%	-15%
31	CCC(=O)Nc1nnc(S(=O)(=O)N(C)Cc2ccco2)s1	-4%[7.34 µM]	i[7.34 µM]
32	CCCCC[C@@H]1CCCCC[C@@H](O)C[C@@H](O)[C@@H](O)/C=C/C(=O)O1	-16%	-12%
33	COCc1cc(=O)oc2cc(NC(=O)c3ccc(C(C)(C)C)cc3)ccc12	-13%	-17%
34	CNCCCOc1ccc(C)cc1OC	-16%	-2%
35	Cc1ccc(NC(=O)c2c(Nc3ccccc3C)sc(C(=O)c3ccccc3)c2N)cc1	-30%	u
36	COCCOc1cnn(-c2cc(Oc3ccc(C)cc3)ncn2)c(=O)c1Cl	-13%	x
37	Cc1ccc(Cl)cc1NC(=S)NCc1cccn1C	-4%	i
38	COc1ccccc1CNS(=O)(=O)c1cc(C(=O)NCC2CCCO2)c(Cl)cc1Cl (stereo not given)	5%	-8%
39	NNC(=O)c1ccc(O)cc1O	-16%	-2%
40	COc1ccc(-c2coc3c(C(=O)Nc4cc(OC)c(OC)c(OC)c4)cccc23)c(C)c1	u	-17%
41	Cc1nc2ccc([N+](=O)[O-])cc2c(=O)n1Cc1cccc(F)c1	-7%	-12%
42	CCc1nc2c(sc3nc4c(cc32)COC(C)(C)C4)c(=O)n1CCN(CC)CC	-28%	-7%
43	Cc1cn(C2CC3OCC3O2)c(=O)[nH]c1=O (stereo not given)	-7%	-6%
44	O=C(Cc1ccccc1)N(Cc1cccnc1)c1nc2c(F)cccc2s1	11%	-2%
45	O=C(O)c1cc(-c2ccc(/C=N/Nc3ccc(Cl)cc3)o2)ccc1Cl	-16%	-8%
46	O=C(NNC(=O)C1COc2ccccc2O1)c1ccccc1O (stereo not given)	-17%	-19%
47	Cc1ccc(C(=O)OCC(=O)NCCN2C(=O)CSC2=O)cc1	1%	i
48	COc1ccccc1N1CCN(S(=O)(=O)c2c(C)[nH]c(C)c2C(=O)N2CCCC2)CC1	11%[7.34 µM]	2%[7.34 µM]
49	CC(C)N(CCNC(=O)c1oc(=O)c2ccccc2c1-c1ccccc1)Cc1ccco1	-27%	-16%
50	CCc1ccc(Oc2c(C(F)(F)F)oc3c(CN4CCC(C)CC4)c(O)ccc3c2=O)cc1	-3%	-4%
51	COc1ccc(C2/C=C\CN(C(=O)CC(C)C)CC(=O)N2Cc2ccc(F)cc2)cc1 (stereo not given)	-10%	-20%
52	COc1cc2c(cc1OC)C(c1ccc(-c3cc(Cl)ccc3Cl)o1)=NCC2	-16%	-22%
53	N/C(=N\OC(=O)c1cc(-c2ccccc2)nc2ccccc12)c1cccnc1	-3%	-5%
54	O=C(CN(c1ccc(Cl)cc1)S(=O)(=O)c1ccc(Cl)c([N+](=O)[O-])c1)NCCc1ccccc1	3%	-12%
55	COc1ccccc1C(=O)NCC(=O)N/N=C/c1cc(Br)ccc1OCc1ccccc1	-15%	-12%
56	O=C(O)c1ccc(COc2ccccc2/C=C2/NC(=O)N(c3cccc(Cl)c3)C2=O)cc1	-23%	-2%
57	O=C1CCC(=O)N1CCSC(=S)N1CCOCC1	7%	i
58	O=C(NC1CCCCC1)C(c1cccnc1)N(C(=O)c1csnn1)C1CCCC1 (stereo not given)	-17%	i
59	O=C(CNC(=O)c1cccs1)c1ccc(Cl)cc1	3%	i
60	COc1cccc(NC(=O)Cn2c(=O)n(CCCC(=O)NCc3ccc4c(c3)OCO4)c(=O)c3ccccc32)c1	2%	3%
61	COc1ccc2c(c1)[C@]1(C)CCC(=O)C[C@H]1CC2	-6%	-6%
62	CC(C)(Oc1ccc(Cl)cc1)C(=O)O	-14%&-17%&-6%	-19%&-5%&-13%
63	O=C(c1ccccc1)N1N=C(c2ccccc2)CC1c1ccccc1[N+](=O)[O-] (stereo not given)	-3%	i
64	CN(C)C(=O)/C(=C\c1ccncc1)NC(=O)c1ccccc1	-21%	i
65	CSc1ccc(C(=O)C2CCCN(C(=O)c3nonc3C)C2)cc1 (stereo not given)	-16%	-10%
66	CCOC(=O)Cn1c(=O)n(-c2ccccc2OC)c2nc(-c3ccccc3F)nc(C(N)=O)c21	3%	2%
67	c1cnc(N2CCN(Cc3c[nH]c4ccccc34)CC2)nc1	13µM*	x
68	COc1ccc(-c2cc(C(F)(F)F)n3nc(C(=O)Nc4sc5c(c4C(=O)OC(C)C)CCCC5)cc3n2)cc1OC	3%	5%
69	Nc1nnc(SCC(=O)OCC(=O)NC2CCCCC2)s1	-7%	i
70	COc1ccc(CNC(=O)CCn2c(=O)c3cccn3c3ccc(F)cc32)cc1	-15%[7.34 µM]	-3%[7.34 µM]
71	CCOCCCNC(=S)Nc1ccc(S(N)(=O)=O)cc1	1%	-15%
72	CCCn1nc(C(=O)N2CCc3ccccc3C2)c2ccccc2c1=O	u	x
73	COc1ccc(NC(=O)Nc2ccc(F)c(F)c2)c(OC)c1	-6%	-15%
74	O=C(Nc1ccc(NC(=O)C2CC2)nc1)c1cccc(F)c1	-14%	-16%
75	Cc1c(C(C)C)c(=O)n(-c2ccc(S(=O)(=O)N3CCOCC3)cc2)n1C	-13%	-8%

# Carrying on:
nr	molecule	Vaccinia Venus	Vaccinia mCherry
76	Oc1ccccc1N1CCN(C(=S)NCCc2ccccc2)CC1	-19%	u
77	COC(=O)[C@H](C)NC(=O)Nc1cccc(C(F)(F)F)c1	-1%	x
78	CCc1cccc(NC(=O)CNS(=O)(=O)c2ccc3nc(C)sc3c2)c1	-9%	-10%
79	Nc1cccc(NC(=O)CCC(=O)NCc2ccco2)c1	-4%	-12%
80	COc1ccc(Oc2nc(C(F)(F)F)nc3ccccc23)cc1	-23%	x
81	COC(=O)C1CC(O)C(O)C(O)C1 (stereo not given)	-3%	-8%
82	CN(CC(=O)Nc1cccc(F)c1)C(=O)CCNC(=O)c1ccco1	-2%	-17%
83	COc1ccc(NS(=O)(=O)c2cccc(NC(=O)CCC(=O)c3ccc(Cl)cc3)c2)cc1	-7%	-22%
84	O=C(C1CC1)N1CCc2cc(S(=O)(=O)N(CCO)Cc3ccccc3)ccc21	-16%	-3%
85	COc1ccc(N2CC(C(=O)Nc3ccc(F)cc3F)CC2=O)cc1 (stereo not given)	-6%	x
86	CCCCN(C=O)c1c(CC)nc2c(OCc3ccc(C(F)(F)F)cc3)cccn12	-10%	-19%
87	COc1ccc(C(C)(NC(C)=O)c2nc(-c3ccc(S(C)(=O)=O)cc3)cs2)cc1 (stereo not given)	8%	-8%
88	COC(=O)/N=C(/Cc1ccc(OC)cc1)c1ccc(OC)cc1	-1%	-6%
89	Cc1cc(-c2nc(C)c(-c3nnc(SCC(=O)Nc4ccc(Cl)cc4)n3C)s2)no1	-11%	-23%
90	CCc1cccc(C)c1NC(=O)CSc1nc2ccncc2[nH]1	-17%&-10%	-12%
91	Cc1ccc(C)c(N(CC(=O)NN=C2CCN(C)CC2)S(=O)(=O)c2ccccc2)c1	-12%	-7%
92	COc1ccccc1OP(=O)(O)Oc1ccccc1OC	-3%	i
93	O=Cc1ccc(-c2ccc(F)cc2)o1	-10%	-10%
94	CC1CCC(NC(=O)CNC(=O)c2cccs2)CC1 (stereo not given)	-14%	-13%
95	CCCCOc1ccc(CNC(=O)c2cnc3sc(N4CCC(C)CC4)nn3c2=O)cc1	-11%	-16%
96	COc1cccc(Nc2sc(C(=O)c3ccc(F)cc3)c(N)c2C(=O)NCc2ccc(Cl)cc2)c1	-6%	-11%
97	CC1CCN(C(c2ccc(F)cc2)c2sc3nc(-c4ccco4)nn3c2O)CC1 (stereo not given)	-16%	-12%
98	CCSc1nnc(NC(=O)CCNS(=O)(=O)c2ccccc2F)s1	-6%	9%
99	Cc1cc(C)c(NS(=O)(=O)c2ccccc2)c(C)c1NS(=O)(=O)c1ccccc1	-14%	-28%
100	O=C(Nc1cccc(-c2nc3ccccc3o2)c1)c1cccc(Br)c1	-4%	-8%
101	Cc1noc(C)c1COc1ccccc1C(=O)NCCc1ccccc1	-6%	-13%
102	CCOC(=O)N1CCC(N2CC34C=CC(O3)C(C(=O)Nc3ccc(OCC)cc3)C4C2=O)CC1 (stereo not given)	-6%	-4%
103	CCCCOC(=O)c1cc(=O)[nH]c2ccc(C)cc12	4%	i
104	COc1ccc(CNC(=O)COC(=O)Cc2ccc(Br)cc2)cc1	-11%	-4%
105	COc1cc(OC)c(OC)cc1CNCc1ccco1	-19%	i
106	O=C(Nc1ccc2nn(-c3ccccc3)nc2c1)c1ccc(-c2cccc(Cl)c2)o1	u	-27%
107	COc1ccc(CN(CC(=O)NCc2ccccc2)C(=O)CCC(=O)Nc2ccccn2)cc1	8%	-3%
108	COc1ccc(NC(=O)Nc2ccc3c(c2)C(=O)N([C@H](C)CO)C[C@H](C)[C@@H](CN(C)C(=O)Nc2ccc(OC)cc2)O3)cc1	-6%	i
109	O=C1c2ccccc2[C@@H]2CC(O)C(O)CCN12 (stereo not given in full)	-7%	i
110	O=C(c1ccccc1)c1ccccc1N/C=C/c1nnnn1-c1ccccc1	-22%	-5%
111	O=C(O)CCCn1cc(NC(=O)COc2ccc(F)cc2)cn1	7%	-10%

# Three structures out of the list, ordered by SMILES length, low to high.
nr	molecule	Vaccinia Venus	Vaccinia mCherry
111	O=C(O)CCCn1cc(NC(=O)COc2ccc(F)cc2)cn1	7%	-10%
106	O=C(Nc1ccc2nn(-c3ccccc3)nc2c1)c1ccc(-c2cccc(Cl)c2)o1	u	-27%
107	COc1ccc(CN(CC(=O)NCc2ccccc2)C(=O)CCC(=O)Nc2ccccn2)cc1	8%	-3%

# Compound activity: PubChem BioAssay, National Center for Advancing Translational Sciences (NCATS)
